Assay outcomes: PubChem, Broad Institute
Hedgehog inh: Sonic Hedgehog pathway inhibition. Shh-LIGHT2 Gli-luciferase reporter, 30 h. inhibition, % (concentration not given with the values). 22,000 tested, 2.1% active;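 active = replicate mean of 65% or more; inconclusive = mean lower but half the replicates past it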;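 note: pathway switched on by Shh-conditioned medium diluted 1 in 25 in low serum; 100 nL library stock added to about 40 µL; 0% = median of neutral wells and 100% = positive control level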
PD-1 reverse act: reversal of PD-1 mediated T-cell inhibition | primary human CD4 T cells, PD-L1 beads, CellTiter-Glo 96 h | AID 2316 | 29,000 tested, under 10 active | activation, % (test concentration not listed);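 active = replicate mean of 50% or more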;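 note: 0% = median vehicle wells and 100% = positive control; 100 nL library stock added to about 50 µL; numbers are from one replicate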
MITF inhib: inhibitors of MITF. 37,000 tested, 0.28% active. AID 2240. TRPM1 promoter luciferase, luminescence, 24 h. inhibition, % (concentration not given with the values);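 active = most replicates at 85% or more, or half of them and the mean; inconclusive = half reach 85% but not the mean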;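 note: human melanocyte line stably carrying TRPM1 promoter luciferase reporter; 0% = vehicle wells and 100% = a positive control; the first replicate is given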
YB-1 expr inh: YB-1 expression inhibition. delta delta Cp (YB-1 minus CDIP) (test concentration not listed). AID 434959. 30,000 tested, 0.37% active. U2OS, qRT-PCR YB-1 vs CDIP delta delta Cp, 16 h; hits give high values; zero = DMSO, each unit about twofold;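 active = delta delta Cp rounded down to an integer at or above 3, about 3 SD of DMSO wells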;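 note: higher means less YB-1 transcript or more CDIP transcript relative to DMSO; stock transfer was 100 nL into about 100 µL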
* marks the source's active call; other numbers are inactive results; ? = inconclusive; · = no result given; & = joins results of further samples; ! = not confirmed by another sample. Only part of the results is shown. The share of hits here may be higher or lower than overall.

SMILES	Hedgehog inh	PD-1 reverse act	MITF inhib	YB-1 expr inh
CC(C)=CC1C(C(=O)OCc2cccc(Oc3ccccc3)c2)C1(C)C (stereo unspecified)	17.8	·	6.0	0.258
O=C(O)COc1cc(Cl)c(Cl)cc1Cl	-63.6	·	3.1	-0.384
CN1C[C@@H](NS(=O)(=O)N(C)C)C[C@@H]2c3cccc4c3c(cn4C)C[C@H]21	11.3	·	13.6	0.326
O=C(CCCN1CCC2(CC1)C(=O)N(Cc1cccc(F)c1)CN2c1ccccc1)c1ccc(F)cc1	?	·	76.4	-0.33
CN1CCC2=C[C@H](O)[C@H]3OC(=O)c4cc5c(cc4[C@H]3[C@@H]21)OCO5	-5.1	·	3.3	-0.227
COc1ccc2c3c([nH]c2c1)C(C)=NCC3	-16.4&-22.6	·	11.7&-8.0	0.243&0.221
CCCCN1CCC(C#N)(Nc2ccccc2)CC1	·	0.2	-5.9	0.176
CN(C)C(=O)Oc1cc(OC(=O)N(C)C)cc(C(O)CNC(C)(C)C)c1 (stereo unspecified)	33.4	·	-14.7	-0.0808
CC1=C2C[C@H]3[C@@H](CC=C4C[C@@H](O)CC[C@@]43C)[C@@H]2CC[C@]12O[C@@H]1C[C@H](C)CN[C@H]1[C@H]2C	88.9*	·	11.4	-0.279
c1ccc(CCCN2CCN(CCOC(c3ccccc3)c3ccccc3)CC2)cc1	86.4*	·	20.5	22.3*
CC(=O)OC[C@]12CCC(C)=C[C@H]1O[C@@H]1[C@H](O)[C@@H](OC(C)=O)[C@@]2(C)[C@]12CO2	109.4*	-9.6	92.0*	0.611
Cc1c(O)c(C(=O)O)c(O)c2c1[C@H](C)[C@@H](C)OC2=O	-4.1	0.5	11.0	0.384
O=c1cccc2n1C[C@H]1CNCC2C1	-36.1	·	7.1	0.285
C=C[C@@H]1C2=CCOC(=O)C2=CO[C@H]1O[C@@H]1O[C@H](CO)[C@@H](O)[C@H](O)[C@H]1O	2.1	0.6	1.0	-0.87
CN1CC(C(=O)N[C@]2(C)O[C@@]3(O)[C@@H]4CCCN4C(=O)[C@H](Cc4ccccc4)N3C2=O)C=C2c3cccc4[nH]cc(c34)C[C@H]21 (stereo partly specified)	-13.8	0.4	-12.8	0.0502
COc1ccc(OC)c(NC(=S)NCCc2cnc[nH]2)c1	·	3.4	-10.5	·
CC1(C)C(C(=O)Nc2nccs2)C1(C)C	-29.8	-1.7	-2.8	-0.275
CC(C)NCC(O)c1ccc(N)c(C#N)c1 (stereo unspecified)	-29.8	·	-13.9	0.0389
COc1cc2ccc(=O)oc2c2ccoc12	-21.0	·	7.6	0.0483
CCCCCCCCCCCCCC(=O)O[C@@H]1[C@@H](C)[C@@]2(O)[C@@H](C=C(CO)C[C@]3(O)C(=O)C(C)=C[C@@H]23)[C@@H]2C(C)(C)[C@]12OC(C)=O	87.0*	-60.8	0.0	0.104

Single entries from the list.
Result for `CCCCCCCCCCCCCC(=O)O[C@@H]1[C@@H](C)[C@@]2(O)[C@@H](C=C(CO)C[C@]3(O)C(=O)C(C)=C[C@@H]23)[C@@H]2C(C)(C)[C@]12OC(C)=O` under MITF inhib: 0.0
Result for `CC1=C2C[C@H]3[C@@H](CC=C4C[C@@H](O)CC[C@@]43C)[C@@H]2CC[C@]12O[C@@H]1C[C@H](C)CN[C@H]1[C@H]2C` under Hedgehog inh: 88.9*
Result for `CN1CC(C(=O)N[C@]2(C)O[C@@]3(O)[C@@H]4CCCN4C(=O)[C@H](Cc4ccccc4)N3C2=O)C=C2c3cccc4[nH]cc(c34)C[C@H]21` (stereo partly specified) under PD-1 reverse act: 0.4

(further entries)
SMILES	Hedgehog inh	PD-1 reverse act	MITF inhib	YB-1 expr inh
CN(Cc1ccccc1)C(=O)CN1CCCC1=O	·	-0.4	-8.5	0.211
C=C(CO)C(=O)O[C@H]1CC(=C)[C@@H]2C[C@H](O)C(=C)[C@@H]2[C@H]2OC(=O)C(=C)[C@@H]21	89.7*	-3.8	-44.9	0.676
Cc1cccc(NC(=O)Cn2cc(C(=O)c3ccccc3)c3ccccc32)c1C	·	-0.7	76.0	·
COc1cc2c(cc1OC)[C@@]13CCN4CC5=CCO[C@H]6CC(=O)N2[C@H]1[C@H]6[C@H]5C[C@H]43	12.0	0.6	9.3	-0.326
Oc1ccc2c3c1OC1[C@@H](O)CC[C@@]4(O)[C@@H](C2)N(CC2CCC2)CC[C@]314 (stereo partly specified)	-0.9	·	-0.5	-0.0564
Nc1ccc(Sc2ccc(N)cc2)cc1	-13.1	0.6	5.1	-0.102
CO[C@H]1[C@H](O)[C@H](O[C@H]2CC[C@]3(C)C4CC[C@]5(C)C(C6=CC(=O)OC6)CC[C@]5(O)C4CC[C@@H]3C2)O[C@@H](C)[C@@H]1O (stereo partly specified)	-4.8	·	21.3	-0.168
CC1=C[C@H]2[C@]3(O)[C@H](C)[C@@H](O)[C@@]4(O)[C@H]([C@@H]3C=C(CO)C[C@]2(O)C1=O)C4(C)C	12.6	1.4	-5.1	-0.077
OC(c1ccccc1)(c1ccccc1)C1CCNCC1	8.7	·	-0.6	0.039
CCC1(CC)C(=O)C=CNC1=O	-36.8	·	-11.2	0.0381
CCOc1ccc(CN(CCc2ccc3c(c2)OCO3)Cc2ccccc2)cc1	·	1.6	-15.8	-0.347
NNCc1cccc(O)c1	-35.5	·	-20.7	-0.274
COC1=C[C@@H]2C3=C([C@@H]2C1=O)[C@@H](NC(C)=O)CCc1cc(OC)c(OC)c(OC)c13	-6.2	·	2.2	0.388
CO[C@H]1[C@@H](O)[C@@H](C)O[C@@H](O[C@@H]2C=C3C(OC(C)=O)CC4(O)C(CC[C@]5(C)[C@@H](C6=CC(=O)OC6)CC[C@]45O)[C@@]3(C)CC2)[C@@H]1O (stereo partly specified)	-1.9	-29.5	35.5	-0.0702
CC1=CC2OC3[C@H](O)C[C@](C)([C@@]2(CO)CC1=O)[C@]31CO1 (stereo partly specified)	95.0*	-1.7	46.9	-0.488
COc1cc2occc2c2oc(=O)ccc12	-22.7	·	-22.6	-0.0802
O=C(Cn1cc(C(=O)c2ccccc2)c2ccccc21)NCC1CCCO1 (stereo unspecified)	·	0.0	-5.7	·
N#CC(CCN1CCN(c2ccccc2)CC1)(c1ccccc1)c1ccccc1	-29.1	0.5	-4.8	0.364
O=C(CNC(=O)c1cccc(Cl)c1)Nc1ccc(Br)cc1C(=O)c1ccccc1	31.7	0.1	15.3	-0.286
CN1C(CC(O)c2ccccc2)CCCC1CC(O)c1ccccc1 (stereo unspecified)	?	3.6	0.4	0.457
C/C1=C/C(=O)O[C@@H]2C[C@@H](CC[C@H](C)/C=C\CC1)O[C@@](O)([C@@H]1CSC(=O)N1)C2	101.9*	·	47.8	0.0415
CC1(C)C(C(=O)Nc2ccccc2C(F)(F)F)C1(C)C	-37.3	-0.7	-11.5	0.129
C[C@@H](CO)NC(=O)C1C=C2c3cccc4[nH]cc(c34)C[C@H]2N(C)C1 (stereo partly specified)	22.0	·	-21.0	-0.268
COc1ccc2c(c1OC)C(=O)O[C@H]2[C@H]1c2cc3c(cc2CCN1C)OCO3	53.5	·	-3.3	6.43*
Cn1cc(C(=O)C(=O)N[C@H]2CN3CCC2CC3)c2ccccc21	15.8	3.2	-1.1	0.253
C[C@H]1CC[C@@H]2[C@@H](C)[C@H]3[C@H](C[C@H]4[C@@H]5CC=C6C[C@@H](O[C@@H]7O[C@H](CO)[C@H](O)[C@H](O[C@@H]8O[C@H](CO)[C@@H](O)[C@H](O)[C@H]8O)[C@H]7O[C@@H]7O[C@@H](C)[C@H](O)[C@@H](O)[C@H]7O)CC[C@]6(C)[C@H]5CC[C@]34C)N2C1	2.1	-0.2	8.0	0.109
COC1=CC(=O)O[C@@H](CCc2ccc3c(c2)OCO3)C1	-6.3	0.9	-7.2	0.359
Fc1ccc(C(OCCN2CCN(CCCc3ccccc3)CC2)c2ccc(F)cc2)cc1	67.0*!	·	6.8&67.8	0.823&-0.0983
COc1ccc([C@H]2Oc3c(I)c(OC)cc(OC)c3C[C@@H]2O)cc1OC	28.5	·	7.2	-0.237
O=c1cccc2n1CC1CNCC2C1 (stereo unspecified)	-11.8	1.7	-12.6	0.134
CCC(C)[C@H]1O[C@]2(C=C[C@@H]1C)C[C@@H]1C[C@@H](C/C=C(\C)[C@@H](OC3C[C@H](OC)C(O[C@H]4C[C@H](OC)[C@@H](O)[C@H](C)O4)[C@H](C)O3)[C@@H](C)/C=C/C=C3\CO[C@@H]4[C@H](O)C(C)=C[C@@H](C(=O)O1)[C@]34O)O2 (stereo partly specified)	4.6	·	100.0*	0.195
C[C@]12CCC(=O)C=C1CC[C@@H]1[C@@H]2C(=O)C[C@]2(C)C(=O)CC[C@@H]12	-23.3	1.6	3.6	0.0677
CC1(C)CC(=O)C2=C(C1)OC(N)=C(C(=O)OC(C)(C)C)C21C(=O)Nc2ccccc21 (stereo unspecified)	-32.2	0.9	3.9	-0.0889
N#CC(O[C@@H]1O[C@H](CO[C@@H]2O[C@H](CO)[C@@H](O)[C@H](O)[C@H]2O)[C@@H](O)[C@H](O)[C@H]1O)c1ccccc1 (stereo partly specified)	33.2	7.3	2.6	0.0223
Cc1c(C(=O)c2cccc3ccccc23)c2cccc3c2n1[C@H](CN1CCOCC1)CO3	11.9	4.3	4.4	-0.269
C[C@@H]1CCOC(=O)C=CC=CC(=O)O[C@@H]2C[C@H]3O[C@@H]4C=C(CO)CC[C@]4(COC(=O)[C@H]1O)[C@]2(C)[C@]31CO1	-6.2	0.1	-4.4	-0.372
COc1ccc(C(=O)O[C@H]2CC[C@@]3(C)[C@@H]4CC[C@H]5[C@]6(O)C[C@H](O)[C@@]7(O)[C@@H](CN8C[C@@H](C)CC[C@H]8[C@@]7(C)O)[C@]6(O)C[C@@]53O[C@]24O)cc1OC	-20.5	·	-10.2	-0.214
CC(O)CNCCNc1ccc([N+](=O)[O-])c2cccnc12 (stereo unspecified)	·	-2.8	30.8	·
CC1=C2[C@H]3OC(=O)[C@@H](C)[C@@H]3CC[C@@]2(C)C=CC1=O	-34.2	·	5.0	0.117
c1ccc(CSc2nnc(-c3ccccc3)o2)cc1	-65.1	0.5	-29.3	1.41
COC[C@H]([C@@H](O)[C@@H](O)C(=O)NCC[C@@H](C)c1nc(/C=C/C[C@H]2OC3(C[C@H](O)[C@H]2C)OC([C@@H](C[C@@H](O)[C@@H](C)[C@@H](O)[C@@H](C)/C=C(C)/C(C)=C/C=C/C(C)=C\C#N)OC)[C@@H](OP(=O)(O)O)C3(C)C)co1)N(C)C (stereo partly specified)	105.3*	-42.0	65.1	0.948
CC(C)(C)NCC(O)c1cc(Cl)c(N)c(Cl)c1 (stereo unspecified)	-3.8	·	-4.6	-0.24
COc1ccc2c(c1OC)C(=O)O[C@@H]2[C@H]1c2cc3c(cc2CCN1C)OCO3	8.2	3.4	-5.4	0.225
CC1(C)C2CC(=O)[C@]3(C)C(CC[C@@]4(C)[C@H](c5ccoc5)OC(=O)[C@H]5O[C@]543)[C@@]2(C)C(=O)C[C@H]1O (stereo partly specified)	-12.6	·	-12.3	0.104
C=CC1C[N+]2([O-])CCC1CC2C(O)c1ccnc2ccccc12 (stereo unspecified)	-12.6	·	·	0.505
O=C(Cn1cc(C(=O)c2ccccc2)c2ccccc21)Nc1ccc(F)cc1	·	0.1	37.9	·
COc1ccc(C(=O)OC2C[C@H]3CC[C@H](C2)N3C)cc1OC (stereo partly specified)	-22.9	-3.1	-5.3	-0.224
CCC1C2CC[N+]3([O-])CCC4(C(=C2C(=O)OC)Nc2c(OC)cccc24)C13 (stereo unspecified)	6.2	1.7	10.2	0.0131
COc1cc([C@@H]2c3cc4c(cc3[C@H](OC(C)=O)[C@H]3COC(=O)[C@@H]23)OCO4)cc(OC)c1OC	8.1	·	37.2	0.618
NCC(CC(=O)O)c1ccc(Cl)cc1 (stereo unspecified)	-38.2	·	8.1	-0.455
C/C=C\C(C)=C\[C@H](C)C(=O)C[C@H](O)CC1CC(=O)NC(=O)C1	53.2	-0.2	51.5	-0.26
CNc1ccccc1C(=O)O	1.9	·	-8.6	0.204
CN1CCN(c2ccc3ccccc3n2)CC1	-11.6	4.0	-17.5	0.014
COc1ccccc1N1CCNCC1	-6.9	·	15.7	0.225
C[C@@H]1O[C@@H](O[C@@H]2C=C3CC[C@@H]4C(CC[C@]5(C)[C@@H](c6ccc(=O)oc6)CC[C@]45O)[C@@]3(C)CC2)[C@H](O)[C@H](O)[C@H]1O (stereo partly specified)	23.1	-16.0	20.0	1.8
COc1ccc(-c2cc(=O)c3c(OC)c(OC)c(OC)cc3o2)cc1	6.4	0.8	-19.4	0.336
N#CC(O[C@@H]1O[C@H](CO)[C@@H](O)[C@H](O)[C@H]1O)c1ccccc1 (stereo partly specified)	-30.3	0.9	-5.4	0.288
CNC(=O)O/N=C/C(C)(C)SC	-47.8	·	3.1	0.0306
C/C=C(/C)C(=O)O[C@H]1C(C)=C2[C@H]([C@@H]1OC(=O)CCCCC)[C@@](C)(OC(C)=O)C[C@H](OC(=O)CCC)[C@@]1(O)[C@H]2OC(=O)[C@@]1(C)O	105.1*	-42.3	69.3	·
CC(C)N(CCC(C(N)=O)(c1ccccc1)c1ccccn1)C(C)C (stereo unspecified)	-16.8&-6.4	·	-12.8&5.1	0.116&0.695
